# Compound activity as filed in PubChem BioAssay.
# AID504770 – E. coli YBA685 growth inhibition, screen for V. cholerae RctB inhibitors; 0.27% of 130,000 active; AID 504770; z-score (concentration not given with the values); E. coli YBA685 rctB-dependent plasmid, OD600 growth, 3 h; hits give low values;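 active means z-score under -2 on both plates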;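 further: wells of about 30 µL received 100 nL stock; score is relative to mean and SD of the test wells; the first replicate is given; strong numbers were not always called active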
# Ba CapD inh – CapD enzyme inhibition; purified CapD enzyme, fluorescence intensity read-out; hits give low values; some hits fall short of the stated cut; z-score (no concentration beside the values); 0.23% of 140,000 active;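 active means z-score under -4 in either of two replicates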;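 further: stock transfer was 100 nL into about 40 µL; score is relative to mean and spread of the plate; one replicate is shown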
# Starred values were filed as active, the others as inactive; i = inactive; · = not tested or not shown; & = joins results of further samples. Only part of the results is shown; rates above refer to the full screens.
SMILES,AID504770,Ba CapD inh
CCOC(=O)c1c(C)oc2c1c(CN1CC(C)OC(C)C1)c(O)c1ccccc12 (centres undefined),0.15,·
CN(Cc1ccccc1)S(=O)(=O)c1ccc2c(c1)CCN2C(=O)C1CC1,-0.5,0.055
Cc1nc(N2CCOCC2)nc(OC2C(=O)c3ccccc3C2=O)c1[N+](=O)[O-],·,8.3
CCOC(=O)N1CCN(C(=O)c2ccc3c(=O)n(Cc4ccc5c(c4)OCO5)c(=S)[nH]c3c2)CC1,·,-0.35
COc1ccc(NC(=O)OCC23COCN2COC3)cc1,-0.2,0.29
Cc1csc(-c2cn(C(C)C)c(=O)n(CC(=O)NN)c2=O)n1,·,47
CCOCc1cn(CC(=O)c2ccc(CC)cc2)c(C)nc1=N,-0.5,0.18
O=C1C=CC(=O)N1c1cccc(Cl)c1,-4*,-0.07
CCOC(=O)c1c(C)oc2c(Cl)cc(NS(=O)(=O)c3ccc(CC)cc3)cc12,·,0.62
O=C(NCc1ccco1)C1C2C3CCC(C3)C12 (centres undefined),0.45,·
COc1ccc(C2OCC(CO)(CO)CO2)cc1,0.05,-0.01
COC(=O)c1cc(=O)n2ccccc2c1C#N,1.6,19
Cc1cc2cc(CCNC(=O)CC3CCCCC3)c(=O)[nH]c2cc1C,0,1.2
CCc1cccc(NC(=O)CCCCCC2NC(=O)NC2C)c1 (centres undefined),1.1,·
CCOC(=O)c1[nH]c(C)c(C(=O)N2CCCC2)c1C,-0.2,-0.62
O=C(N1CCOCC1)C1(c2ccc(Cl)cc2)CCCC1,0.05,·
COc1ccccc1-c1nc(C)c2c(C)c(C#N)sc2n1,-0.3,22
COc1ccc(NC(=O)c2cnn(-c3ccc(C)c(C)c3)c2C2CCNCC2)cc1Cl,0.85,-0.36
COc1cccc(-c2nnc(SCc3nc4ccccc4[nH]3)n2-c2ccccc2)c1,·,0.3
Cc1cc(Oc2ccccc2)nc(Oc2ccc(OCC(N)=O)nn2)n1,-0.15,-0.52
CCCCNc1cc(C)nc(CCC)n1,1,-0.99
O=C(Cn1ncc2c(=O)oc3ccccc3c21)NCCCN1CCCC1=O,1.4,-0.29
COC(=O)c1sc(N)nc1C,-0.45,-0.52
COC(=O)c1ccc(NC(=S)N(C(C)C)C(C)C)cc1,-0.45,0.04
Nc1ncnc2c1ncn2CCO,-0.35,0.55
COc1ccc(-n2ncc3c(N4CCN(c5ccc(F)cc5)CC4)ncnc32)cc1,·,-0.24
CCn1c2ccccc2c2cc(CN3CCC(NC(=O)OCCN(Cc4cccc5ccccc45)C(=O)OC(C)(C)C)C3)ccc21 (centres undefined),·,26
Cc1[nH]c2ccccc2c1CN1CCC(Cc2ccccc2)CC1,-1.4,-0.43
CCN(c1ccccc1)S(=O)(=O)c1ccc2[nH]c3c(c2c1)CCCC3,0.15,-0.83
Cc1cccc2cc(CN(Cc3ccccc3)C(=O)c3ccccc3)c(=O)[nH]c12,0,17
CCOC(=O)c1cnc(Cc2ccccc2)[nH]c1=O,1.7,-0.74
CN(C)C(=O)CSc1nc(SCC(=O)N(C)C)n(-c2ccccc2)n1,0.7,0.36
CCNc1nc(NCC)n2c(SCC(=O)Nc3ccc(CC)cc3)nnc2n1,-0.55,·
CCN1CCCC1CN1C(=O)c2c(COC)nc3ccccc3c2C1=O (centres undefined),·,0.23
CC1CCC(NC(=O)c2ccc3c(=O)n(Cc4ccc5c(c4)OCO5)c(=S)[nH]c3c2)CC1 (centres undefined),·,0.43
O=C1CCC(=O)c2oc3ccccc3c2N1,-0.65,·
O=c1c2cc3ccccc3oc-2nn1-c1ccccc1,-1,-1.6
C[N+](C)(CCOc1ccccc1)Cc1ccccc1 (tested in a mixture with another compound),0.25,-0.62
Cc1cc(NC(=O)c2ccco2)sc1C,-1.8,·
N#CCC(=O)Nc1ccc2c(c1)OCO2,2.5,0.24
CSc1sc(C(=O)Sc2ccccc2)cc1S(=O)(=O)C(C)C,-0.65,-0.93
COC(=O)c1c(/N=C/c2c(O)n(Cc3ccccc3)c(=O)[nH]c2=O)sc2c1CCCC2,-0.65,-0.56
O=C(Cn1c(=O)n(Cc2ccco2)c(=O)c2ccccc21)Nc1cccc(Cl)c1,1,-0.99
CC(O)CNC1CCCC(C)C1 (centres undefined),1.6,·
CN(C)S(=O)(=O)c1ccc(C(=O)OCC(=O)NCc2ccccc2)cc1,-1.1,·
COC(=O)CNC(=O)c1cccnc1SC,-0.35,0.28
CC(=O)N(CCC(Cc1ccccc1)c1ccco1)C(=O)Cc1ccco1 (centres undefined),-0.85,-0.49
CCOC(=O)CNCc1c(C(=O)OCC)c2cc(OC)c(Br)cc2n1C,·,-0.15
COc1cc(C2C(C#N)=C(N)N(c3ccccc3)C3=C2C(=O)CC(C)(C)C3)cc(OC)c1OC (centres undefined),·,0.025
COc1ccc(/C=C/C(=O)Nc2sc3c(c2C(N)=O)CCCC3)cc1OC,-0.25,-1.7
CCOc1ccc(NC(=O)COC(=O)CC2CCCCC2)cc1,-0.7,·
CC(C)C(=O)Nc1c(-c2nc(-c3ccccc3)cs2)cnn1-c1ccccc1,1.1,·
NNC(=O)c1ccc[nH]1,-0.4,0.49
CC(C(=O)O)N1C(=O)/C(=C/c2cccc3ccccc23)SC1=S (centres undefined),-1,-3.2
Cc1ccccc1N(C)C(=O)c1coc(=O)c2ccccc12,-0.7,-0.53
Cn1ncc(C(=O)Sc2ccc(Cl)cc2)c1-n1cccc1,1.8,0.46
CNC(=O)C1=CC(C)(C)NC1(C)C,0.85,0.25
COc1ccc(C(CC(=O)NCc2ccccn2)N2Cc3ccccc3C2=O)cc1OC (centres undefined),-0.15,-0.02
CCn1c2ccccc2c2cc(NC(=O)CO)ccc21,0.3,·
CC(NC(=O)c1cnn2c(C(F)(F)F)cc(-c3cccs3)nc12)c1ccccc1 (centres undefined),0.15,20

# 15 entries from above, set out differently.
SMILES	AID504770	Ba CapD inh
CCOC(=O)c1c(C)oc2c1c(CN1CC(C)OC(C)C1)c(O)c1ccccc12 (centres undefined)	0.15	·
CN(Cc1ccccc1)S(=O)(=O)c1ccc2c(c1)CCN2C(=O)C1CC1	-0.5	0.055
Cc1nc(N2CCOCC2)nc(OC2C(=O)c3ccccc3C2=O)c1[N+](=O)[O-]	·	8.3
CCOC(=O)N1CCN(C(=O)c2ccc3c(=O)n(Cc4ccc5c(c4)OCO5)c(=S)[nH]c3c2)CC1	·	-0.35
COc1ccc(NC(=O)OCC23COCN2COC3)cc1	-0.2	0.29
Cc1csc(-c2cn(C(C)C)c(=O)n(CC(=O)NN)c2=O)n1	·	47
CCOCc1cn(CC(=O)c2ccc(CC)cc2)c(C)nc1=N	-0.5	0.18
O=C1C=CC(=O)N1c1cccc(Cl)c1	-4*	-0.07
CCOC(=O)c1c(C)oc2c(Cl)cc(NS(=O)(=O)c3ccc(CC)cc3)cc12	·	0.62
O=C(NCc1ccco1)C1C2C3CCC(C3)C12 (centres undefined)	0.45	·
COc1ccc(C2OCC(CO)(CO)CO2)cc1	0.05	-0.01
COC(=O)c1cc(=O)n2ccccc2c1C#N	1.6	19
Cc1cc2cc(CCNC(=O)CC3CCCCC3)c(=O)[nH]c2cc1C	0	1.2
CCc1cccc(NC(=O)CCCCCC2NC(=O)NC2C)c1 (centres undefined)	1.1	·
CCOC(=O)c1[nH]c(C)c(C(=O)N2CCCC2)c1C	-0.2	-0.62

# The list goes on:
SMILES,AID504770,Ba CapD inh
COc1cc2c(cc1OC)N1C(=O)c3ccccc3C1(O)OC2=O (centres undefined),-0.05,4.3
COc1cccc(C2C(C(=O)OC3CCCC3)=C(C)NC3=C2C(=O)CC(c2cccs2)C3)c1OC (centres undefined),·,5.9
c1ccc(N2CCN(N=C3c4ccccc4-c4ccccc43)CC2)nc1,0.2,·
CCOC(=O)c1sc2nc(SCc3cccc(Cl)c3)n(Cc3cccs3)c(=O)c2c1C,0.45,-0.02
CC(=O)N/C(=C/c1ccc(Br)cc1)C(=O)O,1.2,-1.2
COc1cccc(/C=N/N=C(N)N)c1O,0.15,1.1
CCOC(=O)c1ccc(NC(=O)c2ccc([N+](=O)[O-])o2)cc1,·,-1.5
COc1ccc(C2=NN(C(=O)c3ccc(Br)cc3)C(c3nc4ccccc4[nH]3)C2)cc1 (centres undefined),·,1.1
O=C1NC(=O)C(=Cc2ccc(OCc3ccc(C(=O)O)o3)cc2)C(=O)N1,-0.45,·
O=C(NCc1ccccc1)Nc1ccc(Cl)cc1,1.7,-0.02
O=C(NCC1CCCO1)c1cc2ccccc2o1 (centres undefined),-0.55,0.48
Nc1c(C(=O)c2ccc(Oc3ccccc3)cc2)oc2ccccc12,·,0.76
Cc1cccc(N=C2NN=C(c3cc(C)n(C)c3C)CS2)c1C,-1.7,·
CCOC(=O)Cn1c(-c2cccnc2)nc(-c2ccccc2)c1-c1ccccc1,-0.45,14
COC(=O)Cc1csc(Nc2ccc(Cl)cc2)n1,-0.45,·
CN(C(=O)CSc1ccccn1)c1c2c(nn1C)CCCC2,1.2,-0.15
COc1ccc(C2C3(C#N)C(N)=NC(OC)(OC)C23C#N)cc1 (centres undefined),-0.75,0.055
O=C(CC1Sc2ccccc2NC1=O)NNC(=O)OCCN1CCN(Cc2ccc([N+](=O)[O-])cc2)CC1 (centres undefined),·,0.12
O=C(NCc1ccccc1)NC1CCCCC1,-0.4&0&0.9,0.27&-0.71&0.48
CCOC(=O)COc1ccc2cc(-c3nc4ccccc4s3)c(=O)oc2c1,0.2,i
Cc1cc(=O)[nH]c(N2CCN(Cc3ccccc3)CC2)n1,-0.95,0.39
O=S(=O)(c1cc(Cl)sc1Cl)N1CCN(c2cnccn2)CC1,·,39
CN(C)c1ncnc(N(C)C)c1[N+](=O)[O-],·,-1.1
Nc1cccc(-c2ccc(CO)o2)c1,-0.05,0.17
COc1ccc(OC)c(S(=O)(=O)/N=C(\Nc2cc(C(F)(F)F)cc(C(F)(F)F)c2)SC)c1,·,0.055
COC(=O)c1scc(S(C)(=O)=O)c1NC(=O)c1ccccc1Cl,-0.15,-0.39
CCOC(=O)C1C(c2cccnc2)C(C(=O)OCC)C(O)(C(F)(F)F)NC1(O)C(F)(F)F (centres undefined),·,-0.45
CCOC(=O)CSc1nc(N2CCOCC2)c2c(c1C#N)CC(C)(C)OC2,·,-0.47
Cc1ccc(S(=O)(=O)NC(CC(=O)N2CCC3(CC2)OCCO3)c2ccco2)cc1 (centres undefined),1.4,0.53
c1ccc2c(-c3csc(-c4ccncc4)n3)c[nH]c2c1,-0.95,-0.77
CCN(Cc1ccncc1)S(=O)(=O)c1ccc(Oc2cccc(Cl)c2C#N)cc1,·,0.69
Nn1c(SCC(=O)Nc2ccc3c(c2)OCO3)nnc1-c1ccc(Cl)cc1,0.6,·
O=C(NCC1CCCO1)c1cc2c(s1)-c1ccccc1OC2 (centres undefined),2,-0.15
CC1(C)CCCC(C)(C)N1OC(=O)c1ccc(N)cc1,-0.35,-0.24
CCN(CCS(=O)(=O)c1ccccc1)S(=O)(=O)c1ccc(Cl)cc1,·,0.26
O=C1C=CC(=O)N1Nc1ccccc1,-0.55,-1.1

# Reprinted from the part before: 2 entries, followed by the next part.
SMILES,AID504770,Ba CapD inh
CCN(CCS(=O)(=O)c1ccccc1)S(=O)(=O)c1ccc(Cl)cc1,·,0.26
O=C1C=CC(=O)N1Nc1ccccc1,-0.55,-1.1
Cc1ccc2nc(C3CCCCC3)cc(C(=O)O)c2c1,-1.6,0.63
Clc1ccc2oc(-c3cccnc3)nc2c1,-0.05,-0.3
CC(NC(=O)CCn1c(=O)sc2ccccc21)c1ccccc1 (centres undefined),0.2,0.9
FC(F)Oc1ccc(Cl)cc1CSc1ncccn1,0.35,·
CC(C)CCNC(=O)C1CCN(S(=O)(=O)N2CCCCC2)CC1,0,6.1
CCCCC1CCC(c2ccc(C(=O)O)cc2)CC1 (centres undefined),0.7,-2.7
FC(F)(F)c1cnc(NN2C3CSC2CS3)c(Cl)c1,-1.6,-0.45
Cc1ccc2cc(CCNC(=O)CCC3CCCC3)c(=O)[nH]c2c1,-1.1,4.6
COc1cccc(CCNC(=O)C2CCCN(c3ncnc4c3nc3n4CCCCC3)C2)c1OC (centres undefined),-0.25,-0.04
CC(C)CNC(=O)NC1(C(F)(F)F)Oc2ccc(Cl)cc2O1 (centres undefined),·,0.62
CCc1ccccc1NC(=O)Nc1cnccn1,2.8,0.79
CN1CCN(CCN2CCn3c2nc2ccccc23)CC1,-0.05,0.56
Cc1nn(C)c(Cl)c1S(=O)(=O)Nc1ccc(Br)cc1,0.75,0.23
O=C(Nc1cccc(-c2nnc(-c3ccccc3)o2)c1)C1CC1,-1.1,0.74
Cc1ccc(N(C)C(=O)Cn2c(=O)oc3cc(S(=O)(=O)N4CC(C)CC(C)C4)ccc32)cc1 (centres undefined),0.3,-0.49
CCOC(=O)C1CCN(Cn2nc(Nc3ccc(CC)cc3)sc2=S)CC1,-0.25,·
Cc1c(Cc2ccccc2)c(=O)oc2cc(OC(C)C)ccc12,-0.15,-0.035
COC(=O)CSc1nnc(COc2ccc(C(C)C)cc2)o1,2.8,·
Cc1ccoc1C(=O)NCCN,-0.5,0.54
Cc1ccc(NC(=S)NCCCN2CCN(c3cc(Cl)ccc3C)CC2)c(Cl)c1,0.2,-0.93
COc1ccc(C2=C/C(=C/c3ccco3)C(=O)O2)cc1,-0.65,·
CN(c1ccccc1)c1cc(N2CCCCC2)c2nonc2c1[N+](=O)[O-],·,-0.33
COc1ccccc1NC(=O)CSc1nnc(NC(=O)CSc2nnc3n(N)cnn23)s1,·,-0.2
CN(C)CCN1CCN(S(=O)(=O)c2ccc(F)cc2F)CC1,·,0.19
Cc1ccc2c(c1)C1CN(C)CCC1N2C(=O)Cn1nnc(-c2ccccc2C)n1 (centres undefined),-0.2,-0.055
O=c1cc(CO)oc(CN2CCC(Cc3ccccc3)CC2)c1O,-0.7,·
CC(C)c1nc2ccccc2n1CC(=O)N1N=C(c2ccc(Cl)cc2)CC1c1ccco1 (centres undefined),0.2,·
COc1ccccc1Cn1c(=O)c(C)nc2cccnc21,-0.7,-0.33
O=C1c2ccccc2-c2onc3ccc(Sc4ccccc4)c1c23,·,-1.2
COc1cc(/C=C2\C(=O)N(c3ccc(C(=O)OC(C)C)cc3)N=C2C)ccc1OC(C)=O,·,-0.26
